Compound activity deposited in PubChem BioAssay by ICCB-Longwood Screening Facility, Harvard Medical School.
PV pol inh: inhibitors of poliovirus RNA polymerase binding and polymerization | % elongation, % (compound at 16.7 µg/mL) | poliovirus polymerase elongation, fluorescence polarization; hits give low values | AID 588519 | 0.66% of 150,000 active | P03300; in the data active means % elongation below about 90%; further: some results filed as inactive read as strong as hits
Target sequence (P03300 1749-2209 limits assumed): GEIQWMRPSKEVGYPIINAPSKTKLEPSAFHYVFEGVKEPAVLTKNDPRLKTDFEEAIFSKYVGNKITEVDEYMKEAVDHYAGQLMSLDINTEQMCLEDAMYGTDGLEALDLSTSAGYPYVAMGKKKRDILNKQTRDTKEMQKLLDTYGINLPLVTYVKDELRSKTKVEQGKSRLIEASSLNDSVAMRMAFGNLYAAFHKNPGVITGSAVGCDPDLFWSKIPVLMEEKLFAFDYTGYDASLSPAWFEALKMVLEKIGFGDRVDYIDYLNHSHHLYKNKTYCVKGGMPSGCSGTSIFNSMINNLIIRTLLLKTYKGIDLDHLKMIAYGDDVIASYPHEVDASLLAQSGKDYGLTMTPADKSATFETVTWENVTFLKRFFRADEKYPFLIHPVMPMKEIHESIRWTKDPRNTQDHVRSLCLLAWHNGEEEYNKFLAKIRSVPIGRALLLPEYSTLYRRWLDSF
PV pol inh intensity: second read-out of PV pol inh, no call of its own (marks repeat the call); % elongation; measured here: total intensity read-out; formula for this scale not given here;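 total fluorescence in place of polarization; lower means less elongation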
Starred values were filed as active, the others as inactive. The list is partial; the hit share may differ from the screen's.

SMILES	PV pol inh	PV pol inh intensity
CN(C)c1ccc(NC(=O)Cn2nnc3sc4c(c3c2=O)CCC(C(C)(C)C)C4)cc1 (stereo not given)	114.0	115.0
CCOc1cc(C(=O)Nc2ccc(-c3nc4ccccc4s3)cc2Cl)cc(OCC)c1OCC	110.0	113.0
COc1cccc(NC(=O)Cn2c(=O)n(Cc3ccc4c(c3)OCO4)c(=O)c3oc4ccccc4c32)c1	110.0	106.0
CCCOc1cccc(C(=O)Nc2ccc(-c3cc4ccccc4oc3=O)c(C)c2)c1	101.0	109.0
Cc1ccc(OC(C)C(=O)N2CCN(CCc3ccccn3)CC2)cc1C (stereo not given)	108.0	99.0
CC1CCN(C(=O)Cn2c(=O)n(-c3ccc(Cl)cc3)c(=O)c3c4c(sc32)CCC4)CC1	107.0	106.0
CN1CCc2nc3sc(C(=O)Nc4ccccc4OC(F)(F)F)c(N)c3cc2C1	118.0	134.0
CN(CC(=O)Nc1ccc(F)cc1F)S(=O)(=O)c1cccc2nsnc12	107.0	112.0
COc1ccc(Cl)cc1NC(=O)CCCS(=O)(=O)c1nc(-c2ccc(OC)c(OC)c2)cc(C(F)(F)F)n1	103.0	107.0
COc1ccc(CCNC(=O)c2ccc3c(c2)nc(C)n3-c2ccc(Br)cc2)cc1OC	111.0	114.0
COc1ccc(CCNC(=O)CCn2c(=O)c3cccn3c3ccc(F)cc32)c(OC)c1OC	110.0	113.0
COc1ccc(-c2nc3sc(CCNC(=O)C(=O)Nc4ccc(C)c(C)c4)c(C)n3n2)cc1	101.0	98.0
Cc1cccc(N2CCN(C(=O)c3nn(C)c4c3CSc3ccccc3-4)CC2C)c1 (stereo not given)	113.0	109.0
O=C(c1ccc2c(c1)N(Cc1cccc(F)c1)C(=O)c1ccccc1S2)N1CCCC1	110.0	110.0
CCCn1c2ccccc2c2cnn(CC(=O)Nc3cc(C)c(Cl)cc3OC)c(=O)c21	96.0	95.0
COC(=O)c1cc2oc(C)cc2n1CC(=O)Nc1ccc(C(C)C)cc1	111.0	114.0
CCCCN(CC)CCCNC(=O)c1cn(CC(C)C)c(=O)c2c1c1ccccc1n2C	105.0	111.0
CCOC(=O)c1cc(-c2ccccc2)n(CCC(=O)Nc2ccccc2CC)c1C	108.0	114.0
COc1ccccc1N1CCN(S(=O)(=O)c2c(C)sc3ncn(CC(=O)Nc4ccc(C(C)C)cc4)c(=O)c23)CC1	102.0	105.0
COc1ccc(OC)c(CCNC(=O)c2cc3c(-c4ccccc4F)nn(C)c3s2)c1	109.0	107.0
CNS(=O)(=O)c1cn(CC(=O)Nc2ccc(C)c(N(C)C)c2)cc1S(=O)(=O)NC	104.0	111.0
Cc1cccc(C)c1NC(=O)c1nc(S(C)(=O)=O)ncc1N(Cc1ccc(C(C)(C)C)cc1)Cc1ccco1	114.0	107.0
Cc1cccc(C)c1NC(=O)Cn1c(=O)n(Cc2ccccc2)c(=O)c2c(C)c(C(=O)N(C)C)sc21	101.0	105.0
COc1ccc2c(Sc3ccc(C)cc3)c(C(=O)NCCc3ccccc3)[nH]c2c1	103.0	111.0
O=C(Cn1c2ncccc2c(=O)n1-c1ccccc1)NCc1ccccc1Cl	106.0	108.0
Cc1ccc(NS(=O)(=O)c2ccc3[nH]c4c(c3c2)CCCCCC4)cc1Cl	111.0	113.0
COc1ccccc1CNC(=O)c1ccc(CS(=O)c2ccccc2Cl)o1 (stereo not given)	111.0	113.0
CCOc1ccc(-c2nnc(SCC(=O)Nc3cccc(OC)c3)nc2-c2ccc(OCC)cc2)cc1	105.0	119.0
COC(=O)C(CCSC)NC(=O)c1cc2c(n(-c3ccc(OC)cc3)c1=O)CC(C)(C)CC2=O (stereo not given)	107.0	109.0
COc1ccc2nc(NC(=O)c3cc(=O)c4cc(C)c(C)cc4o3)sc2c1	111.0	114.0
Cc1ccc(C)c(NC(=O)Cn2c(=O)n(CC(=O)NCCc3ccccc3)c(=O)c3ccccc32)c1	106.0	105.0
CCSc1nnc(NC(=O)c2cccn(Cc3ccc(Cl)cc3)c2=O)s1	110.0	114.0
COc1cccc(NC(=O)CSc2nc(=O)n(Cc3cccnc3)c3c2CCC3)c1	108.0	107.0
COc1ccc(-c2cc(C(F)(F)F)nc(SCCC(=O)Nc3ccc(F)cc3F)n2)cc1	103.0	104.0
COc1cc(C(=O)N(Cc2ccc(C(C)C)cc2)C2CCS(=O)(=O)C2)cc(OC)c1OC (stereo not given)	103.0	106.0
O=S(=O)(NCC(c1ccccc1)N1CCc2ccccc21)c1ccc(Cl)cc1 (stereo not given)	108.0	106.0
O=C(O)Cc1sc(Nc2ccc(C(=O)O)cc2)nc1-c1ccccc1	104.0	108.0
Cc1ccc(-n2c(SCc3cccc(F)c3)nc3[nH]ncc3c2=O)cc1C	106.0	110.0
CC(=O)Nc1cccc(NC(=O)Cn2cnc3c2c(=O)n(C)c(=O)n3C)c1	108.0	107.0
O=C(Nc1ccc(F)cc1Cl)C1CCN(c2ncnc3c2nc2n3CCCCC2)CC1	106.0	114.0
CCCCNC(=O)C1CCCN(c2nnc(C)c3c(C)n(-c4ccc(Cl)cc4)nc23)C1 (stereo not given)	101.0	107.0
COCCCNc1oc(/C=C/c2cc(OC)c(OC)c(OC)c2)nc1C#N	110.0	108.0
COCCn1c(C)cc(O)c(C(c2ccccc2Cl)N2CCCCC2)c1=O (stereo not given)	113.0	110.0
CCOC(=O)C1CCCN(c2c(C(=O)c3ccc(OCC)cc3)cnc3ccccc23)C1 (stereo not given)	106.0	109.0
Cc1ccc2c(c1)-c1ncc(C(=O)c3cc(Br)ccc3O)cc1CO2	100.0	104.0
Cc1ccc(S(=O)(=O)n2nc(-c3ccccc3)nc2NCc2ccc(Cl)cc2)cc1	106.0	105.0
CCOC(=O)c1ccc(Nc2c(-c3ccc(O)cc3)nc3nc[nH]n23)cc1	103.0	114.0
COc1ccc(NC(=O)CC2NCCNC2=O)c(OC)c1 (stereo not given)	102.0	102.0
Cc1sc(NC(=O)C2c3ccccc3Oc3ccccc32)c(C(=O)OC(C)C)c1C	107.0	109.0
COc1ccc(-n2ncc3c(N4CCN(c5cccc(C)c5)C(C)C4)ncnc32)cc1 (stereo not given)	109.0	97.0
COc1ccc(-c2cc(C(=O)Oc3ccc(C)c(C)c3)c3ccccc3n2)cc1	101.0	94.0
Clc1cccc(-n2ncc3c(N4CCC(Cc5ccccc5)CC4)ncnc32)c1	114.0	109.0
Cc1ccc(CN2CCSc3ccc(C(=O)NCc4ccc(OC(C)C)cc4)cc32)cc1	108.0	112.0
COc1ccc(S(=O)(=O)N2CCN(c3ccccc3OC)CC2)cc1	106.0	113.0
O=C(c1ccc(F)cc1)n1nc(-c2cccnc2)nc1NCc1ccc(F)cc1	104.0	107.0
CCc1ccc(-n2nc(C)c3c2NC(=O)CSC3c2ccccc2C)cc1 (stereo not given)	105.0	112.0
O=C(Oc1ccccc1F)c1nc(SCc2ccccc2F)ncc1Cl	99.0	101.0
Cc1ccc(C)c(NC(=O)n2ncc3cc(Cl)ccc32)c1	109.0	117.0
O=C(NC1CC(=O)N(c2ccccc2)C1)c1cc2ccccc2o1 (stereo not given)	111.0	107.0
Cc1ccc(-c2cc(-c3coc4ccccc4c3=O)c3c(n2)-c2cc(Cl)ccc2OC3)cc1	107.0	107.0

Looked up above:
For PV pol inh intensity, CCSc1nnc(NC(=O)c2cccn(Cc3ccc(Cl)cc3)c2=O)s1 reads 114.0
For PV pol inh intensity, COc1ccc(Cl)cc1NC(=O)CCCS(=O)(=O)c1nc(-c2ccc(OC)c(OC)c2)cc(C(F)(F)F)n1 reads 107.0
For PV pol inh intensity, COCCn1c(C)cc(O)c(C(c2ccccc2Cl)N2CCCCC2)c1=O (stereo not given) reads 110.0
For PV pol inh intensity, O=S(=O)(NCC(c1ccccc1)N1CCc2ccccc21)c1ccc(Cl)cc1 (stereo not given) reads 106.0
For PV pol inh intensity, Cc1ccc(NS(=O)(=O)c2ccc3[nH]c4c(c3c2)CCCCCC4)cc1Cl reads 113.0
For PV pol inh, CN(C)c1ccc(NC(=O)Cn2nnc3sc4c(c3c2=O)CCC(C(C)(C)C)C4)cc1 (stereo not given) reads 114.0
For PV pol inh intensity, Cc1ccc(-c2cc(-c3coc4ccccc4c3=O)c3c(n2)-c2cc(Cl)ccc2OC3)cc1 reads 107.0

Other results:
SMILES	PV pol inh	PV pol inh intensity
CCC(=O)Oc1cc(C(C)(C)C)cc2cc(-c3nc(-c4ccc(OC)cc4OC)no3)c(=O)oc12	122.0	110.0
CCOCCCNC(=O)c1cc2c(-c3ccc(OC)c(OC)c3)nn(C)c2s1	100.0	95.0
COC1(C(F)(F)F)NC(=O)N(c2ccc(F)cc2)C1=O (stereo not given)	105.0	109.0
CCOC(=O)c1c(S(=O)(=O)N2CCCC(C(=O)NCc3ccccc3Cl)C2)c(C)n(C)c1C (stereo not given)	104.0	99.0
CSc1nc(NCCOC(C)=O)c(C#N)c(-c2ccc(C(C)(C)C)cc2)n1	99.0	105.0
COc1ccccc1N1CCN(C(=O)c2nc(-c3ccc(C)cc3)n3c2CCCCC3)CC1	109.0	105.0
Cc1ccc(OCC(=O)Nc2cc(-c3nc4ccccc4[nH]3)ccc2C)c(C)c1	101.0	102.0
Cc1ccc(OCc2nc(-c3ccc(C(=O)N4CCN(c5ccc(Cl)cc5)CC4)cc3)oc2C)cc1	107.0	110.0
COc1cccc(CNC(=O)C(NS(=O)(=O)c2ccc3nc(C)sc3c2)C(C)C)c1 (stereo not given)	108.0	108.0
CCn1cc(S(=O)(=O)c2ccccc2)c(=O)c2cc(F)c(N3CCCC3)cc21	110.0	103.0
Cc1cccc(C)c1NC(=O)CCCN1C(=O)CCn2nc(-c3cn(C)c4ccccc34)cc21	110.0	111.0
CCCNC(=O)c1ccc(Cn2c(=O)c3cccn3c3cccnc32)cc1	107.0	107.0
CCCN(CCC)C(=O)Cn1c(=O)n(-c2cccc(OC)c2)c(=O)c2c(C)c(C(=O)N(C)C)sc21	108.0	111.0
O=C(Nc1ccccc1C(=O)OCc1cc(=O)n2ccsc2n1)c1ccccc1Cl	108.0	112.0
Cc1cc(C)cc(NC(c2nnc(-c3cccc(F)c3)o2)c2ccc(F)cc2Cl)c1 (stereo not given)	112.0	112.0
CCCN1CCN(CCCNC(=O)c2cc3c(s2)-c2c(C)cccc2OC3)CC1	101.0	100.0
Cc1ccccc1-c1noc(C(C)NC(=O)c2ccco2)n1 (stereo not given)	103.0	105.0
CCOc1ccc(-c2nnc(SCC(=O)c3ccccc3)n2-c2ccccc2)cc1	105.0	100.0
CCOC(=O)c1ccc(NC(=O)Cn2c(=O)cc(C)c3c(C)nn(-c4cccc(F)c4)c32)cc1	111.0	109.0
Fc1ccc(Nc2nc(SCc3cccc(F)c3)nc3ccccc23)cc1	108.0	113.0
Cn1c(=O)n(C)c2cc(N3CCCCC3)c(NC(=O)c3ccc(Cl)cc3)cc21	96.0	96.0
O=C(NCc1cccc(Br)c1)c1ccc(NC(=O)N2CCCCc3ccccc32)cc1	106.0	109.0
COc1ccc(-c2nc(C)c(CCNC(=O)c3ccccc3Br)s2)cc1OC	111.0	108.0
Cc1cc(C)cc(NC(=O)CCn2cnc3ccccc3c2=O)c1	106.0	109.0
CC1CCN(C(=O)Cn2cc(SCC(=O)Nc3ccccc3C(F)(F)F)c3ccccc32)CC1	105.0	103.0
Cc1ccc(-c2nc(C)c(CCNC(=O)C(=O)Nc3ccc(C)c(Cl)c3)s2)cc1	110.0	110.0
CCCc1ccc(-c2ccc(C(=O)Oc3ccc(OCC)cc3)cc2)nc1	102.0	107.0
COc1ccccc1N1CCN(c2ccc(NC(=O)c3ccc(C)cc3)cc2C(=O)O)CC1	107.0	106.0
CCOc1ccc2nc(N3CCN(C(=O)c4ccc(S(=O)(=O)CC)cc4)CC3)sc2c1	107.0	108.0
COc1ccc(CNC(=O)CN2C(=O)COc3ccc(S(=O)(=O)Nc4ccccc4)cc32)cc1	104.0	106.0
CCN(CC)S(=O)(=O)c1ccc(NC(=O)Cn2ncc3c([nH]c4ccccc43)c2=O)cc1	109.0	109.0
O=C(Cc1ccccc1)Nc1sc2c(c1C(=O)Nc1ccc(Cl)cc1)CCCC2	71.0*	74.0*
O=c1c(NCc2cccs2)nccn1-c1ccc(F)cc1	107.0	110.0
COc1ccc(C(=O)NCC(c2ccc3c(c2)OCO3)N2CCOCC2)cc1OC (stereo not given)	110.0	111.0
Cc1nn(-c2nc(-c3ccc(F)cc3)cc(C(F)(F)F)n2)c(C)c1Cl	103.0	103.0
CCNc1nc(N)nc(Oc2ccc(OCC(=O)OC)nn2)n1	104.0	92.0
Cc1ccc(CCNC(=O)c2ccc3c(c2)c(C)c(C)n3Cc2ccccc2)cc1	108.0	100.0
Cc1ccc(C(C)C)c(OCC(=O)Nc2ccc(O)c(-c3nc4cc(Cl)ccc4o3)c2)c1	103.0	108.0
CCOc1ccc(C2c3c(oc4ccccc4c3=O)C(=O)N2Cc2ccc3c(c2)OCO3)cc1 (stereo not given)	106.0	110.0
Cc1ccc(-n2c3c(c(=O)[nH]c2=O)C(NC(=O)c2ccccc2C)(C(F)(F)F)C(=O)N3)cc1 (stereo not given)	107.0	108.0
COc1cccc(NC(=O)CN2C(=O)COc3ccc(S(=O)(=O)N4CCCCCC4)cc32)c1	118.0	118.0

Exported with each value named: four of the compounds above.
> CCOC(=O)c1ccc(NC(=O)Cn2c(=O)cc(C)c3c(C)nn(-c4cccc(F)c4)c32)cc1
- PV pol inh: 111.0
- PV pol inh intensity: 109.0
> Fc1ccc(Nc2nc(SCc3cccc(F)c3)nc3ccccc23)cc1
- PV pol inh: 108.0
- PV pol inh intensity: 113.0
> Cn1c(=O)n(C)c2cc(N3CCCCC3)c(NC(=O)c3ccc(Cl)cc3)cc21
- PV pol inh: 96.0
- PV pol inh intensity: 96.0
> O=C(NCc1cccc(Br)c1)c1ccc(NC(=O)N2CCCCc3ccccc32)cc1
- PV pol inh: 106.0
- PV pol inh intensity: 109.0
